Screening results deposited in PubChem BioAssay by National Center for Advancing Translational Sciences (NCATS).
TRPML1 agonist = qHTS for Agonists of the Human Mucolipin Transient Receptor Potential 1 (TRPML1). activation, % (no concentration beside the values). TRPML1-expressing cells, Ca2+ dye fluorescence, FDSS; host cell line not named in the record; reference of the full effect not given here. hit rate 0.12% among 410,000. Mucolipin-1 (Homo sapiens), Q9GZU1; in the data active = activation above about 50%; inconclusive = about 30% to 50%; inactive = below about 30%; also: 0% is about no effect; the text of the record puts the active cut at 80%
Target sequence (Q9GZU1 whole entry, looked up): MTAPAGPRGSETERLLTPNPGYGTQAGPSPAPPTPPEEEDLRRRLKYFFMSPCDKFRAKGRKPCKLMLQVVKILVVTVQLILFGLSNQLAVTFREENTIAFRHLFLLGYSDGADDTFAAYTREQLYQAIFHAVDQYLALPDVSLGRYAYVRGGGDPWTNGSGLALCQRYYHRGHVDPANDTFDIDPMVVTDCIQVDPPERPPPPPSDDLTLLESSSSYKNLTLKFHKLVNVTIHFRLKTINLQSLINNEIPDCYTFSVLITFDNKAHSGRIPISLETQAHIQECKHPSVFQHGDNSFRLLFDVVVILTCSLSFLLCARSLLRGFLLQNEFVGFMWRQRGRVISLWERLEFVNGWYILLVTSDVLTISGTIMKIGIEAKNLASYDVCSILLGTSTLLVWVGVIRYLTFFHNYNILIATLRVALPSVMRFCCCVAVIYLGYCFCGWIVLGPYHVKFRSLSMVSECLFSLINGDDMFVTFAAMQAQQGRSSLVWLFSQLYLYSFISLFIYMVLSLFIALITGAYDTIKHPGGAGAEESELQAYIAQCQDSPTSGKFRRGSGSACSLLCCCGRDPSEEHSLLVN
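Kinetic FDSS Ca2+ read in Tet-induced TRPML1-DL cells (ABD Ca8 dye plus quencher, 45-90 min RT loading): baseline, then compound, then 110 s agonist window; EC80 agonist 54-4 at 4uM final added afterwards for a 110 s antagonist window.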
Six1-Eya2 blk = qHTS Assay for Inhibitors of the Six1/Eya2 Interaction. Homeobox protein SIX1 (Homo sapiens) + Protein phosphatase EYA2 (Homo sapiens), …. AlphaScreen GST-Six1/His-Eya2 binding, biochemical; active compounds read low; control for the full effect not named in the record. activity change, % (test concentration not listed). hit rate 0.56% among 360,000. AID 651725, 2012; in the data active = activity change below about -65%; inconclusive = about -30% to -65%; inactive = above about -30%; also: % is scaled to controls: 0 for no effect and ±100 for the full control effect
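Homogeneous AlphaScreen proximity assay pairing GST-Six1 with His-tagged Eya2 (added as 5X mix: 250 nM and 500 nM) in 50 mM Tris pH 8.0, 300 mM NaCl, 1 mM TCEP. Glutathione donor and nickel acceptor beads; 1 h, 37 °C, dark.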
D2 ag = Beta-Arrestin HTS for Positive Allosteric Modulators of the Human D2 Dopamine Receptor: Agonists | D(2) dopamine receptor (Homo sapiens), P14416 | hit rate 0.084% among 360,000 | DiscoveRx PathHunter D2 beta-arrestin, luminescence, 90 min; 100% = 57 uM dopamine signal | activation, % (no concentration beside the values); in the data active = activation above about 40%; inconclusive = about 15% to 40%; inactive = below about 15%; also: compound concentration not given in the record; the text of the record calls up to 30% inactive
Target sequence (P14416 whole entry, looked up): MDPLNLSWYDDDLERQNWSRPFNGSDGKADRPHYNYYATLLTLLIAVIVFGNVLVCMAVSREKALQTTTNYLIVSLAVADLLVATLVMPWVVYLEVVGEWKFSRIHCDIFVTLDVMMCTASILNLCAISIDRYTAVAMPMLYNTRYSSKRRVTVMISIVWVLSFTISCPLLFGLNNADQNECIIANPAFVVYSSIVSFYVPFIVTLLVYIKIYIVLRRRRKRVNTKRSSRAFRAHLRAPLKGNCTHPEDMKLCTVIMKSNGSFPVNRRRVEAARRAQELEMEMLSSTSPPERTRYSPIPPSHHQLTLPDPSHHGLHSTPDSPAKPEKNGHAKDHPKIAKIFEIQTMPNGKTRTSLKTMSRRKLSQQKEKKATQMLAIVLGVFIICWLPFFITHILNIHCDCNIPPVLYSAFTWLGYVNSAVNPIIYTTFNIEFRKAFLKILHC
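DiscoveRx PathHunter D2 beta-arrestin cells (2,100/well) attached overnight, then compound-stimulated 90 min at 37 C in HBSS/10 mM HEPES/0.1% Tween-20 buffer; beta-galactosidase complementation read by luminescence after 1 h at ambient temperature. Dopamine 57 uM final (EC100) as control.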
PINK1 modulator = A Quantitative High throughput Screen to Identify Chemical Modulators of PINK1 Expression | hit rate 0.2% among 410,000 | PINK1 immunofluorescence, high-content cytometry, 24 h | Potency, µM (top dose mostly 76.6 µM), inactives show at the top dose activation (PINK1 increase), actives largely listed as activators | AID 624263, 2012; active = well fitted activation curve with a large enough effect; inconclusive = small, poorly fitted or top-dose-only effect; inactive = flat fitted curve, though single readings scatter; cell line not stated here;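 also: potency is read from the fitted curve at half-maximal effect; % of control where 0% means no effect; nearly all actives have a fitted effect of over 65% in size; a mitochondrial uncoupler was the plate control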
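Cells are seeded, rested 12 hours, then given compound at five concentrations or DMSO for 24 hours. After fixation, blocking and antibody staining, PINK1 amount and mitochondrial localization are scored; CCCP serves as control.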
TRPML1 inh = qHTS for Inhibitors of the Human Mucolipin Transient Receptor Potential 1 (TRPML1); TRPML1-inducible cells, Ca2+ dye fluorescence, FDSS; active compounds read low; inhibition of EC80 agonist-evoked calcium signal; AID 624415, 2012; hit rate 0.02% among 390,000; Mucolipin-1 (Homo sapiens), Q9GZU1; activity change, negative = inhibition, % (test concentration not listed); in the data active means activity change below about -50%; inconclusive means about -30% to -50%; inactive means above about -30%;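 also: stimulus is agonist 54-4 at its EC80 concentration; % is scaled to controls: 0 for no effect and ±100 for the full control effect; compound concentration not given in the record; the text of the record puts the active cut at -80%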
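TRPML1-DL cells, Tet-induced overnight (~16 h, 37 °C) at 1,500 cells/well, were loaded with Ca8 no-wash dye plus quencher for 45-90 min at room temperature. Compounds were pinned during FDSS kinetic reading; agonist 54-4 at EC80 (4 uM final) then added.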
CtBP-E1A inh = qHTS Assay for Inhibitors of the CtBP/E1A Interaction; hit rate 0.49% among 340,000; AlphaScreen GST-E1A/His-CtBP binding, 1536-well; active compounds read low; control for the full effect not named in the record; activity change, % (no concentration beside the values); in the data active means activity change below about -65%; inconclusive means about -30% to -65%; inactive means above about -30%; also: % is scaled to controls: 0 for no effect and ±100 for the full control effect
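In 5 uL wells, 23 nL compound meets equimolar GST-E1A and His-CtBP (5X stock 125 nM each) for 2 h, 37 °C. Beads (5X, 50 ug/mL) then 1 h, 37 °C, dark.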
The depositor's hits bear a star; ? = inconclusive; · = not tested or not shown; & = joins results of further samples; [ ] = another dose, or the depositor's remark.

no. | structure | TRPML1 agonist | Six1-Eya2 blk | D2 ag | PINK1 modulator | TRPML1 inh | CtBP-E1A inh
1 | COc1ccc(Br)cc1CN(C)CC(=O)NCCc1ccccc1 | -0.4 | 4 | -2.5 | 1.0% | -2 | -7
2 | Cc1cn(C)c(CC(=O)NCc2ccccc2)c1C(=O)O | -0.7 | · | · | -0.7% | 31 | ·
3 | O=C(COC(=O)c1ccc(Cl)c(Cl)c1)NC1CCCC1 | -0.7 | 4 | -7.6 | 4.3% | -5 | -12
4 | O=C(COc1ncnc2ccccc12)Nc1ccc(S(=O)(=O)N2CCOCC2)cc1 | 0.6 | 0 | 7.3 | 7.1% | 3 | -4
5 | COc1ccc2nc(NC(=O)CSc3nc(SC)ns3)sc2c1 | 1.1 | 5 | -4.5 | 5.1% | -10 | -1
6 | COc1ccc(C2CC(c3cccs3)=NN2C(=O)CSC2=NN3CCCC(=O)N=C3S2)cc1 (stereo not given) | 0.0 | 2 | 3.3 | -1.3% | -9 | -6
7 | COc1cccc(C(=O)N2c3ccc(C)cc3C(C)(c3ccccc3)CC2(C)C)c1 (stereo not given) | 0.3 | · | · | 0.5% | 41 | ·
8 | O=C(NCCc1ccncc1)Nc1ccc(Cl)c(Cl)c1 | -0.7 | 2 | -7.3 | 0.4% | -8 | -6
9 | COc1ccc(C2Nc3ccccc3C(=O)N2Cc2ccco2)cc1CN1C(=O)c2ccccc2C1=O (stereo not given) | 1.8&0.6&-0.9 | -11&-14 | 2.6&-0.1 | -1.4%&1.7% | 17&12 | -8&7
10 | Cn1c(SCC(=O)NC2CCCCC2)nnc1-c1cccc(N)c1 | -0.1 | 4 | -3.0 | -2.7% | 41 | 3
11 | Cc1ccc(CNC(=O)CN(C)S(=O)(=O)c2ccc3c(c2)c(=O)n(C)c(=O)n3C)cc1 | -0.2 | · | · | -0.2% | -7 | ·
12 | CC(=O)OCC[n+]1c(C)n(-c2ccccc2)c2ccc(Cl)cc21 | 0.0 | 0 | -2.1 | -0.3% | -3 | 8
13 | COCCn1c(SCC(=O)N(C)c2c(N)n(Cc3ccccc3)c(=O)[nH]c2=O)nnc1-c1cccc(C)c1 | 0.1 | 3 | -2.6 | -0.1% | -13 | 6
14 | O=C(COC(=O)c1ccc(S(=O)(=O)N2CCCCC2)cc1)NCc1ccccc1 | 0.0 | 17 | -1.9 | 4.5% | -11 | -17
15 | O=C(Nc1cccc(C(=O)O)c1)/C(=C\c1ccc2c(c1)OCO2)NC(=O)c1ccccc1Cl | -0.3 | -18 | -7.0 | 1.4% | -3 | -16
16 | CC(C)CC(c1nnnn1C1CCCC1)N1CCN(c2ccccc2F)CC1 (stereo not given) | 9.2 | 4 | -4.0 | -0.2% | -6 | 13
17 | CSCCC1NC(=O)NC1=O (stereo not given) | -0.8 | 2 | -3.1 | 5.3% | 10 | -1
18 | Cc1ccc(CN2C(=O)CCC2C(=O)NCCc2ccccc2)cc1 (stereo not given) | 2.6 | 2 | 7.0 | -1.6% | 28 | 11
19 | O=C(Nc1cccc(Cl)c1)c1cc([N+](=O)[O-])ccc1N1CCN(CCO)CC1 | 0.3 | -5 | -2.0 | -0.6% | 17 | 5
20 | O=C(Nc1cc(Cl)ccn1)C1(c2ccccc2)CC1(Cl)Cl (stereo not given) | 3.7 | 10 | 1.3 | 7.3% | 7 | 1
21 | COc1cccc(-n2c(SCC(=O)Nc3c(C)cc(C)cc3C)nc3c([nH]c4ccccc43)c2=O)c1 | 2.3 | · | · | -0.5% | -11 | ·
22 | CC(=O)Nc1cccc(C(=O)NC2CCCc3c2cnn3-c2cc(C)cc(C)c2)c1 (stereo not given) | 2.3 | -1 | -10 | 0.2% | 1 | 1
23 | O=C(CNC(=O)c1cccs1)NCCN1CCN(c2ccccc2F)CC1 | 0.5 | 0 | 5.4 | 8.1%[38.3 µM] | -7 | 2
24 | Cc1oc2c(CN3CCOCC3)c(O)ccc2c(=O)c1-c1ccc(Br)cc1 | -0.5 | 1 | -2.5 | 0.8% | 57 | 3
25 | NC(=O)CC[C@@H]1NC(=O)[C@H](CO)NC(=O)c2cc([N+](=O)[O-])cc(I)c2NCC[C@@H](C(N)=O)NC1=O | -0.8 | -3 | 1.1 | 1.0% | 6 | -1
26 | Cc1ccc(S(=O)(=O)Nc2cccc(Oc3cnccn3)c2)cc1 | -0.6 | 5 | -0.6 | 5.8% | 1 | -22
27 | Cc1ccc(CN(C)C(=O)c2c(C)nn(-c3ccccc3)c2C)cc1 | -0.4 | 4 | 4.5 | -2.2% | -5 | 1
28 | O=C(Cn1c(=O)c2cccn2c2ccc(F)cc21)NCc1cccc(Cl)c1 | 1.3 | · | · | 3.9% | 33 | ·
29 | CC1CN(C(=S)Nc2cccc(Cl)c2Cl)CC(C)O1 (stereo not given) | 0.3 | 4 | -0.8 | -1.3% | -2 | 6
30 | CC(C)n1c(NCc2c[nH]c3ccccc23)nc2ccccc21 | -0.4 | -4 | 1.8 | 0.5% | -12 | -19

Of the compounds above, two contain a nitro group on carbon.
no. | structure | TRPML1 agonist | Six1-Eya2 blk | D2 ag | PINK1 modulator | TRPML1 inh | CtBP-E1A inh
19 | O=C(Nc1cccc(Cl)c1)c1cc([N+](=O)[O-])ccc1N1CCN(CCO)CC1 | 0.3 | -5 | -2.0 | -0.6% | 17 | 5
25 | NC(=O)CC[C@@H]1NC(=O)[C@H](CO)NC(=O)c2cc([N+](=O)[O-])cc(I)c2NCC[C@@H](C(N)=O)NC1=O | -0.8 | -3 | 1.1 | 1.0% | 6 | -1

Carrying on:
no. | structure | TRPML1 agonist | Six1-Eya2 blk | D2 ag | PINK1 modulator | TRPML1 inh | CtBP-E1A inh
31 | O=C(Nc1cccc(S(=O)(=O)NC2=NCCC2)c1)C1CC(=O)N(c2ccc3c(c2)OCCO3)C1 (stereo not given) | 0.0 | 0 | -3.5 | 0.7% | -7 | 0
32 | CCOC(=O)C1=C(C)C(c2ccccc2O)NC(=O)N1 (stereo not given) | 0.2 | -2 | -1.9 | 1.4% | 23 | 5
33 | Cc1nn2c(C)c(C(=O)NCC(C)c3ccccc3)cnc2c1-c1ccccc1 (stereo not given) | 1.0 | · | · | 0.4% | -8 | ·
34 | O=C1/C(=C\c2cccnc2)CCc2ccccc21 | -0.6 | 18 | -2.6 | -4.2% | -19 | 35
35 | Cc1ccccc1OCC(=O)N/N=C/c1ccc(Sc2nc3ccccc3s2)o1 | 1.4 | -4 | 1.0 | 0.3% | -9 | -4
36 | COc1ccc(NC(=O)c2cc(CN3CCCC3)on2)cc1Cl | 0.1 | · | · | 0.4% | ? | ·
37 | CCOC(=O)c1sc2nc(C)nc(NCc3ccccc3)c2c1C | 2.4 | -3 | 3.9 | 3.1% | -11 | ·
38 | COc1ccc(NC(=O)CSc2nnc(-c3ccccn3)n2N)cc1Cl | -0.1 | -16 | 1.2 | -2.6%[38.3 µM] | -8 | -13
39 | CC1CCN(C(=O)c2ccc(CS(=O)(=O)Cc3ccccc3)cc2)CC1 | -0.4 | 8 | -0.6 | -3.1% | 11 | 10
40 | O=[N+]([O-])c1nn(-c2ccc3c(c2)OCCO3)n(O)c1=NCc1ccc(F)cc1Cl | 0.2 | 13 | 2.5 | ? | 25 | 1
41 | COc1ccc(CN(CCC(c2ccccc2)c2ccco2)C(=O)c2ccco2)cc1 (stereo not given) | 0.1 | -21 | 1.3 | 8.0% | -1 | 4
42 | CCOC(=O)c1ccc(N2C(=O)c3[nH]nc(-c4ccccc4)c3C2c2cccs2)cc1 (stereo not given) | 0.0 | · | · | ? | -6 | ·
43 | CN(CC(=O)Nc1ccc(Cl)c(Cl)c1)C1CCCCC1 | -0.5 | 2 | -3.6 | 40µM* | 2 | 20
44 | COc1ccc(CC(=O)Nc2cccc3ncccc23)cc1OC | 0.3 | 3 | -8.3 | -0.4% | 17 | -7
45 | Cc1nnc(NC(=O)CSc2nnc3scc(-c4ccc(C)c(C)c4)n23)s1 | 1.1 | 14 | 0.2 | 2.0% | 26 | 16
46 | CCOc1cc(C2C3=C(CC(C)(C)CC3=O)N(CCCOC)C3=C2C(=O)CC(C)(C)C3)ccc1O | 1.3 | 2 | -1.2 | -0.7% | -6 | 1
47 | O=S(=O)(Cc1ccccc1)c1ccccc1-c1nnc(-c2ccccc2)o1 | 1.1 | 3 | 2.2 | 12% | -3 | 3
48 | CCn1c(=O)c2c(O)cc(=O)oc2c2ccccc21 | -0.3 | -14 | -2.4 | ? | 4 | -15
49 | CN(C)CCNC(=O)c1cccc(-c2cnc3c(NC=O)cc(/C=C/c4ccccc4)cn23)c1 | -0.6 | 3 | 5.3 | 0.3% | · | -5
50 | Cc1oc(-c2ccc(C(=O)NCc3ccc(F)cc3)cc2)nc1CS(=O)c1ccccc1 (stereo not given) | 1.8 | · | · | 3.3% | -11 | ·
51 | COc1cccc(/C(O)=C2\C(=O)C(=O)N(c3ccccn3)C2c2ccccc2OC)c1 (stereo not given) | 2.5 | 2 | -1.3 | -0.4% | -4 | -1
52 | CCCc1cc(=O)[nH]c(SCC(=O)Nc2ccc(OC)c(S(=O)(=O)N3CCCCC3)c2)n1 | 0.2 | -11 | 5.9 | 0.5% | 4 | -15
53 | CCOCCCNC(=O)C(NC(=O)c1ccc2c(c1)OCO2)c1ccccc1 (stereo not given) | -0.3 | 4 | -0.3 | 2.7% | 12 | 0
54 | O=C(O)C1CCCNC1 (stereo not given) | 0.3 | 4 | -3.5 | 1.2%&-1.0% | 16 | 11
55 | O=C(c1ccc(S(=O)(=O)NCC2CCCO2)cc1)N1CCN(c2ccccc2F)CC1 (stereo not given) | 0.8 | 7 | 6.5 | -0.9% | -20 | 4

An excerpt from above, limited to TRPML1 agonist and D2 ag:
#	Molecule	TRPML1 agonist	D2 ag
52	CCCc1cc(=O)[nH]c(SCC(=O)Nc2ccc(OC)c(S(=O)(=O)N3CCCCC3)c2)n1	0.2	5.9
55	O=C(c1ccc(S(=O)(=O)NCC2CCCO2)cc1)N1CCN(c2ccccc2F)CC1 (stereo not given)	0.8	6.5
51	COc1cccc(/C(O)=C2\C(=O)C(=O)N(c3ccccn3)C2c2ccccc2OC)c1 (stereo not given)	2.5	-1.3
54	O=C(O)C1CCCNC1 (stereo not given)	0.3	-3.5
53	CCOCCCNC(=O)C(NC(=O)c1ccc2c(c1)OCO2)c1ccccc1 (stereo not given)	-0.3	-0.3
